# Screening data from PubChem BioAssay.
# HPGD block = HPGD (human) dehydrogenase inhibition; purified HPGD, NADH fluorescence kinetic, PGE2 substrate; Potency, µM, for the others: at the highest dose activity change, negative = inhibition, usual class: inhibitors; 150,000 compounds, 4.3% hits; active = well fitted inhibition curve with a large enough effect (not every such curve was filed as active); inconclusive = small, poorly fitted or top-dose-only effect, or another doubt; inactive = no such curve, though single readings can be large or run the other way;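 note: top concentration of the series not given in the record; plate controls included wells without enzyme; inactives centre near -10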
# Target sequence (P15428 whole entry, looked up): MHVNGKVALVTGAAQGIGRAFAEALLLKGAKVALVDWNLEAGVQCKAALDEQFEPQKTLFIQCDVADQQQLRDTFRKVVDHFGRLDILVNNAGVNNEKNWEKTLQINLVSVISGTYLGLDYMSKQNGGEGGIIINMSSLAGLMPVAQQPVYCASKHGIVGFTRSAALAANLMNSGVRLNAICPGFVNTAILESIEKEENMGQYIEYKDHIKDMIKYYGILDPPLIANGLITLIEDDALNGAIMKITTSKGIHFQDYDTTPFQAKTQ
#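 NADH formation kinetics: reaction with 30 uM PGE2 and 1 mM NAD+ (final), 20 nM enzyme, Tris-HCl pH 8 with Tween 20, after 15 min compound preincubation at room temperature. Fluorescence change, last versus first of five reads.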
# An asterisk follows results filed as active; ? = inconclusive. % is set by controls: 0 for no effect and ±100 for the full control effect; potency is the fitted concentration of half-maximal effect.
SMILES,HPGD block
CCOc1ccc(C(=O)/C=C/Nc2ccc(S(=O)(=O)Nc3onc(C)c3C)cc2)cc1,?
CCCn1c(C)nc2c(NCCCN(CCO)CCO)nc(C)nc21,0%
Cc1ccccc1OCC(=O)Nc1ccccc1N1CCCCC1,-20%
O=C(NCCCN1CCOCC1)c1ccccc1,-1%
O=C(COc1ccc(/C=N/NC(=O)c2ccc(O)cc2)cc1)Nc1ccc([N+](=O)[O-])cc1,-6%
Oc1c(CN2CCCCC2)cc(COCc2ccccc2)c2cccnc12,-10%
O=C(CCCC(=O)N1CCN(c2ccccc2F)CC1)N1CCN(c2ccccc2F)CC1,-3%
CCOC(=O)c1nn(-c2ccccc2)c(-c2ccccc2)c1C(=O)c1ccccc1,-11%
COCCCNC(=O)CS(=O)Cc1nc(-c2cccc(OC)c2)oc1C (configuration not stated),?
Cc1cccc(C)c1NS(=O)(=O)c1c(C)[nH]c(=O)[nH]c1=O,-7%
CCc1c(C(=O)Nc2ccc(OC)c(Cl)c2)[nH]c(C)c1C(C)=O,-23%
COc1ccc(C(=O)n2cc(C(=O)c3cc(C)ccc3O)cn2)cc1OC,?
CCCCn1c(=O)n(CC(=O)Nc2ccc(OC)c(Cl)c2)c(=O)c2c1nc(CO)n2CCC,-3%
CCOC(=O)N1CCN(C2=CC(=O)OC23CCCCC3)CC1,-11%
CC(=O)Nc1ccc(S(=O)(=O)NCCc2cc3c(C)ccc(C)c3[nH]c2=O)cc1,-10%
COc1cc(/C=C2\SC(=O)N(CCNC(=O)c3cnc(C)cn3)C2=O)cc(OC)c1OC,-20%
COc1ccc(C2NC(=O)NC3=C2CCc2ccccc23)cc1 (configuration not stated),?
OC[C@H]1O[C@H](n2cnc3c(NC4CCCC4)nc(Cl)nc32)[C@@H](O)[C@@H]1O,-20%
O=C1C2C(C(=O)N1/N=C/c1cc(Br)cc([N+](=O)[O-])c1O)C1C=CC2C12CC2 (configuration not stated),-17%
CCOC(=O)c1sc(=S)n(-c2ccc(Cl)cc2)c1SC,-21%
COc1cc2c(cc1OC)C(c1ccccc1)N(C(=O)CCl)CC2 (configuration not stated),-11%
Cc1ccc(NC2=NCC(=O)N2C2CCCC2)c(C)c1,-2%
Clc1ccc(C(c2nnnn2CCc2ccccc2)N2CCSCC2)cc1 (configuration not stated),0%
Oc1ccc(N=Nc2cccc(C(F)(F)F)c2)cc1C=Nc1ccc(N2CCOCC2)cc1,?
CC1CCN(C(=O)CN(c2ccc3c(c2)OCO3)S(C)(=O)=O)CC1,-6%
O=C(Nc1nc2ccccc2s1)c1ccc2c(c1)OCO2,-21%
O=C(/C=C/c1cccc([N+](=O)[O-])c1)Nc1cccc(NC(=O)c2cccs2)c1,-11%
NC(=O)CNC(=O)[C@@H]1CC2(CC(c3cccc([N+](=O)[O-])c3)=NO2)CN1C(=O)c1ccccc1 (some centres not stated),-11%
Cc1cc2ncn(C(=O)N3CCCCC3)c2cc1C,-11%
N=C1SC(c2ccccc2)C(=O)N1c1ncc(Cc2ccccc2)s1 (configuration not stated),-26%

# 4 of the compounds above, field by field:
Structure: CC(=O)Nc1ccc(S(=O)(=O)NCCc2cc3c(C)ccc(C)c3[nH]c2=O)cc1
  HPGD block: -10%

Structure: COc1cc(/C=C2\SC(=O)N(CCNC(=O)c3cnc(C)cn3)C2=O)cc(OC)c1OC
  HPGD block: -20%

Structure: COc1ccc(C2NC(=O)NC3=C2CCc2ccccc23)cc1 (configuration not stated)
  HPGD block: ?

Structure: OC[C@H]1O[C@H](n2cnc3c(NC4CCCC4)nc(Cl)nc32)[C@@H](O)[C@@H]1O
  HPGD block: -20%

# Other compounds follow.
SMILES,HPGD block
NC(=O)c1ccccc1NC(=O)/C=C/c1ccc(Cl)cc1,?
O=C(Cn1cc([N+](=O)[O-])cn1)N1N=C(C(F)F)CC1(O)C(F)F (configuration not stated),-3%
Cc1ccccc1NC(=O)c1cc(S(=O)(=O)c2ccccc2)ccc1Cl,-6%
COc1ccc(-n2nnnc2S(=O)(=O)Cc2ccc(C(=O)O)cc2)cc1,?
COC(=O)[C@@H]1[C@@H](C)N(Cc2ccccc2)C(=O)N[C@H]1c1cccc(C(F)(F)F)c1,-7%
CCCn1c(-c2ccc(F)cc2)nc2c(N3CCN(Cc4nc(OC)cc(OC)n4)CC3)nc(C)nc21,-23%
CCOC(=O)Cc1csc(NC(=O)c2c(-c3c(F)cccc3Cl)noc2C)n1,-1%
O=C1C2CC=CCC2C(=O)N1c1n[nH]c(-c2ccccc2)n1 (configuration not stated),4%
COc1ccc(NCc2n[nH]c(=O)c3ccccc23)cc1,0%
O=C(O)CCSc1nnc(CNc2ccc(Cl)cc2)n1Cc1ccccc1,-4%
COc1cc2c(cc1NC(=O)c1cccc(F)c1)CCCC2,-12%
CCC(Sc1nnc2c3ccccc3n(CC)c2n1)C(=O)Nc1sc2c(c1C#N)CCCC2 (configuration not stated),-29%
CCN(CC)c1ccc(/C=N/OCC(=O)Nc2cccc(C)c2)cc1,?
CN(C)c1ccc(S(=O)(=O)NCC(=O)OCC(=O)Nc2cccc(Cl)c2)cc1[N+](=O)[O-],3%
Nc1nc2sc3c(c2c(=O)s1)CCCC3,-7%
Cc1ccc(C(CC(N)=O)c2ccco2)cc1 (configuration not stated),-1%
COc1cc(C2C3C(C)N(C)C(=O)N(C)C3N(C)C(=O)N2C)ccc1O (configuration not stated),-12%
CCOc1ccccc1NC(=S)Nc1ccccc1F,-17%
CCC(C)NC(=O)c1ccccc1NC(=O)Nc1ccccc1 (configuration not stated),-10%
O=C(N1CCOCC1)N1CCCC(c2nc(-c3cccs3)no2)C1 (configuration not stated),-9%
OCCn1c(CSc2nc3ccccc3n2CCO)nc2ccccc21,?
CC(C)c1ccc(/C=C(\c2nc3ccccc3[nH]2)S(=O)(=O)c2ccccc2)cc1,-14%
Cc1cccc(Nc2ncccc2C(=O)NCc2cccs2)c1C,-13%
CCCCCOC(=O)Cn1c(N2CCCCCC2)nc2c1c(=O)[nH]c(=O)n2C,-24%
CC1(C)C2CCC1(C)C1(C2)NC(=O)c2ccccc2O1 (configuration not stated),-6%
CCNC(=S)NNC(=O)c1ccc(OC(F)F)cc1,-12%
COc1ccc(/C=N/NC(=O)C(C)n2nnc3ccccc32)cc1OC (configuration not stated),-14%
Cc1c(C2(O)C(=O)Nc3ccc(F)cc32)c(=O)n(-c2ccccc2)n1C (configuration not stated),2%
Cc1nnc(SCc2ccccc2)n1CC1CCCO1 (configuration not stated),-13%
O=C(CN1CCCCC1)Nc1ccccc1,-21%
CC(C)(C)n1nc(-c2ccc(Cl)cc2)c2c(N)ncnc21,-14%
COc1ccccc1NS(=O)(=O)c1cccc(NC(=O)Nc2ccccc2)c1,-9%
O=C(CSCc1ccco1)NC1CCCC1,28µM*
COc1cc(NC(=O)C2CCCO2)c(OC)cc1Cl (configuration not stated),-3%
CCc1nc(SCc2ccc([N+](=O)[O-])cc2)n[nH]1,-28%
N/C(=N\OC(=O)COc1ccc(Cl)cc1)c1cccnc1,-10%
CCCCN(CCCC)S(=O)(=O)c1ccc(NC(=O)c2ccc([N+](=O)[O-])cc2Cl)cc1,-17%
COc1ccc(CCNC(=O)C2CC(c3c(Cl)cccc3Cl)=NO2)cc1 (configuration not stated),-12%
CCOC(=O)CN1C(=O)C(O)(CC(=O)c2ccccn2)c2ccccc21 (configuration not stated),-17%
O=c1[nH]nnc2sc3c(c12)CCCC3,-30%
COc1cc(Nc2ccc(C)cc2)c([N+](=O)[O-])nc1[N+](=O)[O-],-17%
Cc1cnn(-c2nc(-c3cccs3)cc(C(F)(F)F)n2)c1,-18%
Cc1cc(C)n2nc(C(=O)OCCOc3ccc(Br)cc3)nc2n1,-7%
O=C(COC(=O)c1ccco1)NC1CCCCC1,-19%
COc1ccc(/C=N/NC(=O)c2ccc(Cl)cc2)cc1Cn1cc(Cl)cn1,?
CCCn1nnnc1SCC(=O)N1CCOCC1,0%
N#Cc1c(N)nc2c(c1-c1cccs1)CCCC2,-7%
CC(C)c1ccc(CNCc2ccccc2)cc1,-5%
Cc1cc(C)nc(-n2nc(C)c(C3(O)C(=O)Nc4ccccc43)c2N)n1 (configuration not stated),-8%
COc1ccc(Oc2ncc3nc(C)c(=O)n(C4CC4)c3n2)cc1,-10%
Cc1cnc(C(=O)Nc2nnc(SCc3c(Cl)cccc3Cl)s2)cn1,?
CCOC(=O)C1CCCN(CC(=O)NC2CC2)C1 (configuration not stated),-1%
Cn1cccc1C(=O)N1CCC2(CCN(C(=O)Nc3cccc(C#N)c3)CC2)CC1,-1%
Cc1onc(-c2ccccc2)c1C(=O)NCCN1CCOCC1,-4%
NS(=O)(=O)c1ccc(CCNC(=O)Nc2ccc(Cl)cc2)cc1,-8%
CC(=O)Nc1ccc(OC(F)(F)C(F)F)c(NC(C)=O)c1,-7%
COc1ccc(C(=O)N2CCC3(CC2)CN(C(=O)Nc2cccc(C#N)c2)C3)cc1,-12%
C=CCOc1ccc(Oc2cc(C)nc(SC)n2)nn1,-8%
COc1ccc(-c2cc(-c3cccs3)nc3sc(C#N)c(N)c23)cc1,?
Cc1nnc(-c2cnn(-c3ccccc3)c2N)n1Cc1cccc(C(F)(F)F)c1,13µM*

# Going on with the list.
SMILES,HPGD block
CCc1ccc(C2N3CC4([N+](=O)[O-])CN2CC([N+](=O)[O-])(C3)C4(C)C)cc1 (configuration not stated),2%
COCCNC(=S)N1CCOCC1,-10%
COCCn1c(SCC(=O)c2c(-c3ccccc3)n(C)c3ccccc23)nnc1-c1ccncc1,-9%
Cc1ccc(Cl)cc1N1CCN(C(=O)CCC(=O)O)CC1,-10%
CCOC(CNC(=O)CCc1c(C)nc2nc(C)nn2c1C)OCC,-4%
CCOc1ccccc1C(=O)NCCCN1CCN(CCCNC(=O)c2ccccc2OCC)CC1,-12%
Cc1ccc(NC(=O)c2nc(C)n(-c3ccc([N+](=O)[O-])cc3)n2)cc1,-8%
COc1ccc(-n2c(Cc3cccn3C)nnc2SCC(=O)NCc2ccccc2Cl)cc1,-15%
Cc1ccc(-n2c(-c3cccc(C)c3)n[nH]c2=S)cc1,22µM*
O=C(Cn1cc(C(=O)C2CC2)c2ccccc21)NCC1CCCO1 (configuration not stated),-9%
COc1ccc(NC(=O)N2CC3(CCN(C(=O)c4c(C)noc4C)CC3)C2)cc1,-22%
COc1ccc(NC(=O)Nc2cc(C)ccc2F)cc1,-10%
N/C(=N\OC(=O)Nc1ccc(Cl)c(Cl)c1)c1ncc(C(F)(F)F)cc1Cl,-5%
O=C(c1ccco1)N1CCN(C(=O)C2CCN(S(=O)(=O)c3cnc[nH]3)CC2)CC1,-16%
COc1ccc2cc(/C=N/NC(=O)CN(c3ccccc3C)S(=O)(=O)c3ccccc3)c(Cl)nc2c1,?
c1ccc(C2CCC3(CC2)Oc2ccccc2C2CC(c4cccnc4)=NN23)cc1 (configuration not stated),?
C=CCn1cc(/C=N/NC(=O)COc2cccc3cccnc23)c2ccccc21,-10%
O=C(CCOc1ccccc1)N1CCN(S(=O)(=O)c2cccs2)CC1,-11%
CCOC(=O)C1=C(O)/C(=C/c2ccc(-c3ccccc3C(=O)O)o2)SC1=Nc1ccc(C)cc1,-13%
COc1cc2c3c(c1)c(C1=NC(=S)NC1=O)c(O)n3C(C)(C)C=C2C,-6%
CCCc1nc(SCC(=O)N2CCc3ccccc32)c2c(C)c(C)sc2n1,-5%
Cc1cc(NC(=O)CN2CCN(S(=O)(=O)c3ccc4ccccc4c3)CC2)no1,-17%
CCOc1cc(S(=O)(=O)N(CC)CC)ccc1F,2%
NC(=O)c1ccccc1N/C=C/C(=O)c1cccs1,-5%
Cc1nc(C)c(C(=O)C2=C(O)C(=O)N(CCN(C)C)C2c2cccs2)s1 (configuration not stated),-24%
CCCC1S/C(=N/N=C/c2ccc(OC)cc2)N(Cc2ccccc2)C1=O (configuration not stated),-21%
Cn1c(C(=O)NCCN2CCCCCC2)cc2c(=O)n(C)c3ccccc3c21,?
Cn1c(=O)c2c(nc(SCc3ccccc3)n2Cc2ccc(Cl)cc2)n(C)c1=O,-9%
CCCC12CN3CC(C)(CN(C1)C3c1ccc(OC(C)C)cc1)C2=O (configuration not stated),-8%
O=C1C(C=NCC2CCCO2)=C(O)c2ccccc21 (configuration not stated),-20%

# Two records drawn at random from the list so far:
SMILES,HPGD block
O=C(CCOc1ccccc1)N1CCN(S(=O)(=O)c2cccs2)CC1,-11%
COc1ccc2cc(/C=N/NC(=O)CN(c3ccccc3C)S(=O)(=O)c3ccccc3)c(Cl)nc2c1,?

# (more compounds)
SMILES,HPGD block
COc1ccc(CCNS(=O)(=O)c2cn(C)c(=O)n(C)c2=O)cc1,-9%
O=c1[nH]c(CSc2nnc(-c3ccco3)n2-c2ccccc2)nc2sc3c(c12)CCC3,-9%
Cc1ccc(-n2c(N)c(C#N)c(-c3ccc(Cl)cc3)c(C#N)c2=O)cc1,?
COC(=O)[C@@]1(Cc2ccc(F)cc2)[C@H]2c3cc(C(=O)N(C)C)n(CCc4c[nH]c5ccc(OC)cc45)c3C[C@H]2CN1C(=O)c1ccccc1,-12%
c1ccc(C(c2nnnn2C2CCCC2)N2CCN(c3ccccc3)CC2)cc1 (configuration not stated),-14%
Cc1c(C(=O)N2CCCC2)sc(NC(=O)c2ccc(Cl)cc2)c1C#N,-23%

# These rows are one share of the data; rates above refer to the full screens.
